# H5N1 CPE – MDCK cell protection from H5N1 avian flu. cytopathic effect, luminescence, 72 h; hits give high values; no value below 0 was filed and about half of the inactive calls have no number; reference of the scale not given here. inhibition, % at 50 µM. AID 740. hit rate 0.07% among 96,000; in the data active = inhibition above about 25%
# Numbers without * were called inactive; i = inactive. Not all compounds are listed; count on the stated rates, not on these rows.
molecule,H5N1 CPE
CCSc1nnc(NC(=O)c2csc3c2CCC(C)C3)s1 (stereo unspecified),i
O/N=C(\c1ccc(Cl)cc1)c1cc2ccccc2o1,i
COc1ccc(-n2c(C)cc(C(=O)CSc3nnc(-c4cccs4)o3)c2C)cc1,2.4
COc1ccc(N2C(=O)CN=C2Nc2nc(C)cc(C)n2)cc1OC,0.0
CCOCCCNS(=O)(=O)c1ccc2c(c1)CCN2C(=O)CC,i
COc1ccccc1-c1cn(S(=O)(=O)c2ccc(F)cc2)nc1N,i
C=CCNc1sc(C(=O)C(C)(C)C)c(N)c1C#N,0.8
O=C(NCCN1CCCC1)C1COc2ccccc2O1 (stereo unspecified),0.5
COc1ccc(-c2noc(CCCOc3ccccc3)n2)cc1OC,i
COc1ccc2c(c1[N+](=O)[O-])CCC/C2=N/OC(=O)c1cccc2ccccc12,i
CCOC(=O)CSc1ncnc2c1cnn2-c1ccc(C)cc1,i
N#C/C(=C/c1ccccc1)c1nn(CCO)c(N)c1C#N,i
CCOC(=O)c1c(NC(=O)C(C)N2CCN(C(=O)c3ccco3)CC2)sc2c1CCCC2 (stereo unspecified),i
CCOC(=O)C1=C(C)Nc2nc(SCC)nn2C1c1ccc(OC)cc1 (stereo unspecified),0.7
O=c1c2c(nc3c(-c4ccccc4)c[nH]n13)CCCC2,2.7
CN(CC(=O)O/N=C(\N)c1ccccn1)S(=O)(=O)c1ccccc1,i
Cc1[nH]c2ccccc2c1Cc1nnc(SCC(N)=O)o1,0.9
CC(C)C1=NN(C(=O)c2cccnc2)C(O)(C(F)(F)F)C1 (stereo unspecified),1.6
COc1ccc(CN(CCCN2CCOCC2)S(=O)(=O)N(C)C)cc1OC,0.9
CC(C)(C)NC(=O)C1Cc2ccccc2CN1C(=O)Nc1cccc(Cl)c1 (stereo unspecified),i
CC1(C)C=Cc2c(c3ccccc3[nH]c2=O)O1,6.7
CCn1c(SCC(=O)N2c3ccccc3Sc3ccccc32)nnc1-c1ccco1,0.7
Cn1nc(C(F)(F)F)c(/C=N/OC(=O)c2ccc(Cl)cc2)c1Cl,i
Cc1cc(NC(=O)CCC(=O)N(Cc2cccs2)C(C(=O)NC2CCCC2)c2ccncc2)no1 (stereo unspecified),0.4
CCOc1ccc(C2CC(c3cccc(OC)c3OC)n3nnnc3N2)cc1Cl (stereo unspecified),i
Cc1ccc(C2C3CSCC=C3C(C#N)=C(N)C2(C#N)C#N)cc1 (stereo unspecified),0.1
CC(NC(=O)COC(=O)c1cn(-c2ccccc2)nc1-c1cccs1)c1ccccc1 (stereo unspecified),i
CC(C)(C)c1ccc(Oc2cccc(C3CC(=O)C(C4NCCc5ccccc54)C(=O)C3n3cncn3)c2)cc1 (stereo unspecified),i
CCOC(=O)C1=C(C)Nc2ncnn2C1c1cccs1 (stereo unspecified),0.7
Cc1ccc(-c2cc(C(=O)N3CCN(C(=O)c4ccco4)CC3)no2)cc1,i

# An excerpt taken from the entries so far:
molecule,H5N1 CPE
CCOC(=O)CSc1ncnc2c1cnn2-c1ccc(C)cc1,i
N#C/C(=C/c1ccccc1)c1nn(CCO)c(N)c1C#N,i
CCOC(=O)c1c(NC(=O)C(C)N2CCN(C(=O)c3ccco3)CC2)sc2c1CCCC2 (stereo unspecified),i
CCOC(=O)C1=C(C)Nc2nc(SCC)nn2C1c1ccc(OC)cc1 (stereo unspecified),0.7
O=c1c2c(nc3c(-c4ccccc4)c[nH]n13)CCCC2,2.7
CN(CC(=O)O/N=C(\N)c1ccccn1)S(=O)(=O)c1ccccc1,i
Cc1[nH]c2ccccc2c1Cc1nnc(SCC(N)=O)o1,0.9
CC(C)C1=NN(C(=O)c2cccnc2)C(O)(C(F)(F)F)C1 (stereo unspecified),1.6
COc1ccc(CN(CCCN2CCOCC2)S(=O)(=O)N(C)C)cc1OC,0.9
CC(C)(C)NC(=O)C1Cc2ccccc2CN1C(=O)Nc1cccc(Cl)c1 (stereo unspecified),i
CC1(C)C=Cc2c(c3ccccc3[nH]c2=O)O1,6.7
CCn1c(SCC(=O)N2c3ccccc3Sc3ccccc32)nnc1-c1ccco1,0.7
Cn1nc(C(F)(F)F)c(/C=N/OC(=O)c2ccc(Cl)cc2)c1Cl,i
Cc1cc(NC(=O)CCC(=O)N(Cc2cccs2)C(C(=O)NC2CCCC2)c2ccncc2)no1 (stereo unspecified),0.4
CCOc1ccc(C2CC(c3cccc(OC)c3OC)n3nnnc3N2)cc1Cl (stereo unspecified),i
Cc1ccc(C2C3CSCC=C3C(C#N)=C(N)C2(C#N)C#N)cc1 (stereo unspecified),0.1
CC(NC(=O)COC(=O)c1cn(-c2ccccc2)nc1-c1cccs1)c1ccccc1 (stereo unspecified),i

# New compounds follow
molecule,H5N1 CPE
Cc1cccc2cc(CN(Cc3ccc(F)cc3)Cc3nnnn3C3CCCC3)c(=O)[nH]c12,0.7
O=C(Nc1nnc(Cc2ccccc2)s1)c1cccs1,i
CN1CCc2c(c3ccccc3n2C)C1,i
CCOC(=O)C(C(=O)OCC)C(C#N)c1ccccc1 (stereo unspecified),i
Cc1oc(-c2ccccc2Cl)nc1CSCC(=O)N1CCCC1,0.1
O=C(NC1CCCCCCC1)C1c2ccccc2C(=O)N1Cc1ccco1 (stereo unspecified),i
COc1ccccc1C(=O)Nc1ccc2c(c1)OCCO2,0.3
CCN(CC)CCCN(Cc1cc2cc3c(cc2[nH]c1=O)OCCO3)C(=O)Nc1ccc(F)cc1,i
S=C(NCCC(c1ccccc1)c1ccccc1)Nc1ccccc1Cl,0.1
Cc1cccc(C)c1N(CC(=O)NN=C1CCCCCC1)S(C)(=O)=O,1.1
CCOC(=O)n1ccc(C(=O)Nc2ccccc2F)n1,0.6
C=CCn1c(SCC(=O)N2CCN(c3ccc(F)cc3)CC2)nnc1-c1cccs1,1.9
COc1ccc(C2CC(=O)C3=C(C2)Nc2ncnn2C3c2ccccc2C)cc1 (stereo unspecified),0.2
C=CCC(NCc1ccco1)c1ccc(OC)cc1OC (stereo unspecified),i
CCN(CC)C(=O)c1sc(NC(=O)c2ccc(C)c([N+](=O)[O-])c2)c(C#N)c1C,i
CC(=O)SCC(C)C(=O)NCc1ccccc1 (stereo unspecified),i
CC1CCN(CC(=O)NCc2ccccc2)CC1,1.6
COc1ccc(S(=O)(=O)N2CCC(N3CCCCC3)CC2)cc1,1.5
O=C(C1CC1)N1CCC(c2nc(-c3ccc(S(=O)(=O)NCC4CCCO4)cc3)no2)CC1 (stereo unspecified),0.1
CSCCC(=O)Nc1ccc(C(C)=O)cc1,0.6
Nc1nnc(C(c2ccccc2)c2ccccc2)s1,0.5
NC(=O)C(Cc1ccccc1)NS(=O)(=O)c1ccc(N2CCCC2=O)cc1 (stereo unspecified),0.8
Nc1ccc(C(=O)N/N=C2/CN3CCC2CC3)cc1,i
CC(C)C(=O)Nc1cccc(C(=O)N2CCCCC2C)c1 (stereo unspecified),i
Nn1c(SCC(=O)N2CCCc3ccccc32)nnc1-c1ccc(Cl)cc1,2.6
COC(=O)c1ccccc1NC(=S)NC(NC(=O)COc1ccccc1)C(Cl)(Cl)Cl (stereo unspecified),i
COCc1cc(CN2CCCC2)c(O)c2ncccc12,i
N#CCN1CCC/C1=C\[N+](=O)[O-],0.2
CCCCCNC(=O)c1ccc2c(=O)[nH]c3c(C(=O)NCC4CCCO4)sc(=S)n3c2c1 (stereo unspecified),i
Cc1cc(C)n(C(=O)c2cccc(S(=O)(=O)N3CCOCC3)c2)n1,i

# Additional compounds
compound | H5N1 CPE
O=C(CSc1ccc2ccccc2n1)c1ccc2c(c1)OCO2 | 0.7
O=S(=O)(NCCOCCNS(=O)(=O)c1ccccc1)c1ccccc1 | 0.1
Cc1cc(C)cc(NC(=O)CN(C)S(=O)(=O)c2cnc[nH]2)c1 | 0.4
Cn1c(=O)c2c(SCc3cccnc3)nc(CC(C)(C)C)nc2n(C)c1=O | i
O=C(NCc1ccco1)c1ccc(Br)c(S(=O)(=O)N2CCCCC2)c1 | 1.7
CC(=O)CCc1c(C)c2cccc(C)c2[nH]c1=O | i
O=C(Nc1ccc(Cl)cc1C(=O)Nc1ccc(Br)cn1)c1ccco1 | i
Cc1ccccc1NC(=O)C(C#N)Cc1cccnc1 (stereo unspecified) | 0.4
Cc1cc(C)n2cc(CSc3nnc(N)s3)nc2n1 | 0.8
Cc1nc(NC(=O)CCc2ccccc2)ccc1Br | i
O=C(CN1CCN(Cc2ccccc2)CC1)c1ccccc1 | i
c1ccc2c(c1)ncn2-c1ccc(-c2ccnc(-c3ccncc3)n2)cc1 | i
CCOc1ccc2nc(NC(=O)C(NS(=O)(=O)c3cccs3)C(C)C)sc2c1 (stereo unspecified) | i
COc1cccc(-c2nc(OC(C)C)c3ccccc3n2)c1 | 0.8
Cc1nc2ccc(S(=O)(=O)c3ccc4nc(C)[nH]c4c3)cc2[nH]1 | 0.0
O=C(O)/C=C/C(=O)Nc1ccccc1C(=O)Nc1ccccc1 | i
O=C(Nc1ccc(N2CCOCC2)cc1)C1CCCN(S(=O)(=O)c2ccccc2)C1 (stereo unspecified) | i
Cc1ccc2c(N)c(C#N)sc2n1 | 0.1
COc1nc(N=C(N)N)nc2c(C)cccc12 | 0.6
CC(OC(=O)c1ccco1)C(=O)NC1CCCCC1 (stereo unspecified) | 0.6
CC(=O)N(C)c1ccc(NC(=O)c2cnn(C)c2)cc1 | 1.5
Cc1c(C(=O)N(C)C)sc(NC(=O)c2cccc([N+](=O)[O-])c2)c1C#N | 2.5
CSCCC(NC(=O)c1cc(C(C)(C)C)oc1C)C(=O)O (stereo unspecified) | 1.6
CCN(CC)CCN=Cc1c(O)n(Cc2ccccc2)c(=O)[nH]c1=O | 0.6
CN(Cc1ccccc1)Cc1nc2c(c(=O)n(C)c(=O)n2C)n1Cc1ccc(Cl)cc1 | 1.4
CCOC(=O)c1c(C)nc2sc3c(=O)n(-c4ccc(C(C)=O)cc4)nnc3c2c1-c1ccc(OC)cc1 | 0.2
CC(=O)CSc1ncnc2c1oc1ccccc12 | 10
CCCc1nnc(NC(=O)Cn2c(=O)oc3cc(Br)ccc32)s1 | i
CCOC(=O)C1CCN(C(=O)C2CCN(S(=O)(=O)N3CCCC3)CC2)CC1 | 0.1
CCN(CC)c1nc2nonc2nc1N(CC)CC | 0.9
CC(=O)NC1(C(Cl)(Cl)Cl)Oc2ccccc2O1 | i
O=S(=O)(c1cccs1)N1CN(Cc2cccs2)c2nc3ccccc3nc21 | 0.3
COn1c(C)c(C(C)=O)c2c3nonc3ccc21 | 0.2
Cn1nc(-c2ccccc2)c(C#N)c1Sc1cccc(Cl)c1 | 1.0
O=C(COC(=O)c1ccccc1Nc1cccc(C(F)(F)F)c1)NCc1ccco1 | i
COc1ccccc1C(=O)Nc1ccon1 | 1.9
COc1ccc(N2CCN(C(=O)CCn3nnc4ccccc43)CC2)cc1 | 0.7
CCCN1C(=O)C(O)(CC(=O)c2cccc(OC)c2)c2ccccc21 (stereo unspecified) | i
O=C(CC(c1ccccc1)c1cc(Cl)ccc1O)N1CCOCC1 (stereo unspecified) | i
CC(=O)NC(CCS(C)(=O)=O)C(=O)Nc1ccccc1C (stereo unspecified) | i
CC1(C)CC2CC(C)(CN2C(=O)CN2C(=O)c3ccccc3C2=O)C1 (stereo unspecified) | 0.1
Cc1nc2c(C(=O)NCc3ccc4c(c3)OCO4)cnn2c(C)c1Cc1ccc(F)cc1Cl | 0.4
CCOC(=O)c1[nH]c(C)c(C(=O)N2CCN(C(=O)OCC)CC2)c1CC | i
Cc1ccc(N2C(=O)N(CC(=O)NC(c3ccccc3)c3ccccc3)C(=O)C2C)cc1 (stereo unspecified) | i
CC(C)(Oc1ccc(Cl)cc1)C(=O)Nc1ccc2oc(-c3ccncc3)nc2c1 | 1.4
CCC1SC2=NC(C)=C(C(=O)OCCOC)C(c3ccc(C(=O)OC)cc3)N2C1=O (stereo unspecified) | 1.9
Cc1ccccc1NC(=O)C(=O)NCc1ccccn1 | i
Nn1c(SCC(=O)Nc2ccc3c(c2)OCO3)nnc1-c1ccccc1 | i
Nc1c(C(=O)NCCN2CCOCC2)c2nc3ccccc3nc2n1-c1cccc(F)c1 | 0.4
CCN1CCN(C(=O)C2CCC(CNS(=O)(=O)c3ccccc3)CC2)CC1 (stereo unspecified) | i
Cc1cccc(-n2nnnc2SC(C)C(=O)NCCC2=CCCCC2)c1 (stereo unspecified) | 0.5
COc1ccc(C2CC(C(F)(F)F)n3nc(C(=O)NCc4cn(C)nc4C)c(Cl)c3N2)cc1 (stereo unspecified) | i
CC(C)C(=O)Nc1ccc(N2CCN(C(=O)c3cccs3)CC2)cc1 | i
CCOC(=O)C1CCCN(C(=O)CSCc2ccccc2)C1 (stereo unspecified) | 0.1
CS(=O)(=O)N(CC(=O)NCC1CCCO1)c1ccc(F)c(Cl)c1 (stereo unspecified) | i
O=C(CSc1nnc(-c2cccs2)n1-c1ccccc1)N1CCCC1 | i
Cc1ccc(C(=O)Nc2nc3ccccc3c(=O)s2)cc1 | i
COc1cc(OC)cc(-c2nnc(SCc3c(F)cccc3Cl)o2)c1 | i
O=C(/C=C/c1ccccc1)NC(NC(=S)Nc1cccc(Cl)c1)C(Cl)(Cl)Cl (stereo unspecified) | i
O=C(Nc1cc(C(F)(F)F)cc(C(F)(F)F)c1)c1ccc(Cn2cc(C(F)(F)F)ccc2=O)cc1 | 0.9

# (more compounds)
compound | H5N1 CPE
CC(=O)/C(=C/Nc1ccc(Oc2ccccc2)cc1)c1ccccc1 | i
CCC(=O)N1CCc2cc(S(=O)(=O)NCCC(=O)N3CCN(c4ccccn4)CC3)ccc21 | 1.6
CC(C)(C)NC(=O)C(c1ccccn1)N(C(=O)c1ccc2c(c1)OCCO2)C1CCCC1 (stereo unspecified) | 1.0
O=C(NCCCN1CCCC1=O)c1ccc(OCc2ccccc2)cc1 | i
Cc1ccc(C(=O)Nc2nnc(C3CCCCC3)s2)o1 | i
CC(C)C1=Nc2cccc3cccc(c23)N1 | i
CCNc1ccc(Br)cc(C(=O)/C=C/c2ccc3c(c2)OCO3)c1=O | 1.3
CNc1nc(CC(C)=O)ns1 | 1.7
CCOC(=O)N1CCN(Cc2nc3c(c(=O)n(C)c(=O)n3C)n2Cc2ccccc2)CC1 | 1.8
COC(=O)c1cccc(NC(=O)Cc2coc3cc(OC)ccc23)c1 | 0.2
